Cruzain inh Det: qHTS Assay for Promiscuous and Specific Inhibitors of Cruzain (with detergent); Cruzipain (Trypanosoma cruzi), P25779; purified cruzain, Z-FR-AMC fluorescence, 0.01% Triton; Potency, µM, without a hit: max response, negative = inhibition, usual class: inhibitors; 200,000 compounds, 0.43% hits; AID 1478, 2009; active = well fitted curve in the direction sought with a large enough effect; inconclusive = small, poorly fitted or top-dose-only effect, or another doubt; inactive = no such curve, though single readings can be large; an effect the other way counts as inactive or inconclusive;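 note: plate controls were neutral wells for no effect and buffer without enzyme for full effect; nearly all actives have a fitted effect of over 40% in size; top concentration of the series not given in the record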
Target sequence (P25779 123-467 limits assumed): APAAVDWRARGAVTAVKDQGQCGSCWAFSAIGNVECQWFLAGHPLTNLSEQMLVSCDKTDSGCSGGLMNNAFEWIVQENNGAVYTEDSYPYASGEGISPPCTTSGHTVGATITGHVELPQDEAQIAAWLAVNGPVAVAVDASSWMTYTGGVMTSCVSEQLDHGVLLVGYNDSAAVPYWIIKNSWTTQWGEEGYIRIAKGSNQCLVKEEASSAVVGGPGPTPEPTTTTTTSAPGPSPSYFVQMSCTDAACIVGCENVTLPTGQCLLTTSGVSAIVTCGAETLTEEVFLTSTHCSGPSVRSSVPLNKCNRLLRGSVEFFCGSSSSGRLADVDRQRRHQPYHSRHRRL
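Z-FR-AMC hydrolysis (2 uM substrate) by cruzain (1.5 nM) monitored kinetically at ex 360/em 450 nm after 15 min room-temperature compound exposure; 0.01% Triton X-100, pH 5.5, 5 mM DTT.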
StopGo reporter: High Throughput Screening for Foot and Mouth Disease Virus Antivirals | Potency, µM (doses to about 57.9 µM), inactives show at the highest dose signal change, negative = less light | human cells with a luciferase reporter of 2A StopGo recoding; control for the full effect not named in the record | 410,000 compounds, 1.2% hits; active = well fitted falling curve with a large enough effect; inconclusive = small, poorly fitted or top-dose-only effect; inactive = no such curve, though single readings can be large or run the other way; tested in HEK293T cells; note: % is set by controls: 0 for no effect and ±100 for the full control effect; nearly all actives have a fitted effect of over 45% in size; luciferase light after 4 h
RE007 growth inh: qHTS Assay for Inhibitors of the HIV-1 protein Vpr | S. pombe RE007 Vpr strain, BacTiter-Glo ATP luminescence, 24 h; control for the full effect not named in the record | Potency, µM (doses to about 92.2 µM), for inactives: at the top dose activity change, negative = less growth | 360,000 compounds, 0.21% hits | AID 651644, 2012; active = well fitted falling curve with a large enough effect; inconclusive = small, poorly fitted or top-dose-only effect; inactive = no such curve, though single readings can be large or run the other way;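 note: % is set by controls: 0 for no effect and ±100 for the full control effect; nearly all actives have a fitted effect of over 50% in size; the assay follows cell death caused by Vpr and the record does not say whether a fall means rescue or toxicity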
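Fission yeast RE007 carrying one integrated HIV-1 vpr copy, seeded at OD 0.01 in PMG+AL medium with 23 nL pinned compound. Grown 24 h at 30 degrees; viability read by BacTiter-Glo luminescence after 5 min.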
MARV entry inh: qHTS for inhibitors of binding or entry into cells for Marburg Virus. Marburg virus pseudotyped entry inhibition, cell reporter; control for the full effect not named in the record; about a third of the inactives were read at about 46 µM. Potency, µM (doses to about 37.8 µM), for the others: at the highest dose activity change, negative = inhibition, most hits filed as inhibitors. 300,000 compounds, 1.8% hits. AID 540276, 2011; active = well fitted inhibition curve with a large enough effect; inconclusive = small, poorly fitted or top-dose-only effect, or effect the other way; inactive = flat fitted curve, though single readings scatter; tested in HEK293 cells; about a fifth of its hits are not listed in these tables; note: % is set by controls: 0 for no effect and ±100 for the full control effect; luciferase read-out
NS1 inh: qHTS Assay for Inhibitors of Influenza NS1 Protein Function. S. cerevisiae slowed by influenza A NS1, growth recovery by OD600. 270,000 compounds, 0.4% hits. AID 2326, 2010. Potency, µM (titrated, usually from 46.1 µM), without a hit: at the top dose activity, positive = more growth; note: actives are rising curves; nearly all actives have a fitted effect of over 50% in size
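A cell-based growth assay was used: compounds that relieve NS1-induced slow growth of budding yeast raise OD600. Assay medium was yeast nitrogen base with ammonium sulphate and -URA supplement, pH 6.0, with 2% galactose.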
Cruzain inh noDet: qHTS Assay for Promiscuous and Specific Inhibitors of Cruzain (without detergent); Cruzipain (Trypanosoma cruzi), P25779; purified cruzain, Z-FR-AMC fluorescence, no detergent; Potency, µM, without a hit: max response, negative = inhibition, usual class: inhibitors; AID 1476, 2009; 200,000 compounds, 2.3% hits; active = well fitted curve in the direction sought with a large enough effect; inconclusive = small, poorly fitted or top-dose-only effect, or another doubt; inactive = no such curve, though single readings can be large; an effect the other way counts as inactive or inconclusive;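 note: plate controls were enzyme without inhibitor for no effect and buffer without enzyme for full effect; nearly all actives have a fitted effect of over 40% in size; top concentration of the series not given in the record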
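Detergent-free condition (0.00005% Triton X-100) in acetate buffer pH 5.5 with DTT. 1.5 nM enzyme and compound were pre-mixed 15 min, then 2 uM Z-FR-AMC substrate added; reaction progress from fluorescence change between first and third reads (60 s).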
SARS PLP yeast: qHTS of Yeast-based Assay for SARS-CoV PLP | S. cerevisiae expressing SARS-CoV PLpro, growth rescue; control for the full effect not named in the record | Potency, µM (top dose mostly 32.9 µM), without a hit: at the top dose activity, positive = growth rescue | 330,000 compounds, 0.19% hits; note: 0% is about no effect; nearly all actives have a fitted effect of over 55% in size; growth read by luminescence after 48 h
Lassa entry inh: qHTS for Inhibitors of binding or entry into cells for Lassa Virus. Potency, µM (highest dose often 37.9 µM), inactives show at the highest dose activity change, negative = inhibition, usual class: inhibitors. Lassa virus pseudotype entry inhibition, cell reporter; control for the full effect not named in the record. 300,000 compounds, 1.2% hits. AID 540256, 2011; active means well fitted inhibition curve with a large enough effect; inconclusive means small, poorly fitted or top-dose-only effect, or effect the other way; inactive means flat fitted curve, though single readings scatter; tested in HEK293 cells; note: % is set by controls: 0 for no effect and ±100 for the full control effect; nearly all actives have a fitted effect of over 50% in size; luciferase read-out
* marks the source's active call; other numbers are inactive results; ? = inconclusive; . = no result given; [ ] = remark or other dose. Unless noted, calls come from the whole dose curve; as a rule, active means well fitted rising curve with a large enough effect; inconclusive means small, poorly fitted or top-dose-only effect; inactive means no such curve, though single readings can be large or run the other way. Potency is the fitted concentration of half-maximal effect.

mol	MARV entry inh	Cruzain inh Det	SARS PLP yeast	StopGo reporter	Lassa entry inh	RE007 growth inh	NS1 inh	Cruzain inh noDet
COc1ccccc1Cn1c(=S)[nH]c2cc(C(=O)NCCN(C)C)ccc2c1=O	10µM*	.	2%	-12%	-1%[46.1 µM]	-6%	-3%	.
O=C(Nc1cc(Cl)ccc1N1CCOCC1)c1ccco1	.	.	10%	16%	.	-9%	-37%	.
CCOC(=O)C(=O)Nc1ccc(Oc2ccccc2)cc1	.	.	-13%	3%	.	-4%	-43%	.
Cc1ccc(Cn2nnnc2CN2CCC(n3nnc4cc(C(F)(F)F)ccc43)CC2)cc1	?	-9.4%	-11%	?	?	25%	-33%	?
O=C(Nc1ccc(Br)cc1Cl)NC1CC1	-9%	.	-2%	-11%	?	10%	-5%	.
CCc1cccc(OCC(=O)Nc2ccc(S(=O)(=O)Nc3ccccn3)cc2)c1	.	.	1%	22%	.	-4%	-1%	.
O=C(CCc1ccccc1)Nc1ccncc1	2%	0.7%	3%	3%	0%	-3%	-1%	-3%
CCOC(=O)C1=C(C)N(C)C(=O)NC1c1cccc2ccccc12 (stereo not drawn)	-1%[46.1 µM]	.	0%	-15%	-14%[46.1 µM]	13%	-6%	.
CC1(C)C(=O)OC(/C=C\c2cccc([N+](=O)[O-])c2)C(C)(C)C1=O (stereo not drawn)	8%[46.1 µM]	.	-1%	-11%	28%[46.1 µM]	22%	-1%	.
CCS(=O)(=O)N1Cc2ccccc2CC1C(=O)N(C)Cc1ccc(OC)cc1OC (stereo not drawn)	-8%[46.1 µM]	.	-11%	18%	?	-1%	-2%	.
COC(=O)c1ccc(OCCOc2ccc(C(=O)OC)cc2)cc1	-8%	7.9%	4%	4%	9%	27%	4%	2%
O=C(COC(=O)c1cc2c(s1)CCCCC2)NC1CCS(=O)(=O)C1 (stereo not drawn)	?	.	-3%	-14%	-2%[46.1 µM]	-8%	.	.
CC1CCN(C(=O)C2CCN(CC(C)c3ccccc3)CC2)CC1 (stereo not drawn)	24%	12%	9%	-4%	-15%	-3%	5%	-12%
CC(=O)NC(O)C(=O)c1ccccc1 (stereo not drawn)	-2%	-3.3%	-7%	36%[activator]	18%	23%	7%	1%
O=C(CSc1ccc2nc(-c3ccccc3)cn2n1)Nc1cccc(F)c1	.	-5.3%	.	57%[activator]	3%[46.1 µM]	.	.	16%
Cc1ccc(CN2C(=O)c3ccccc3Sc3ccc(C(=O)N4CCOCC4)cc32)cc1	.	0.7%	.	2%	-23%[46.1 µM]	.	.	?
CCc1ccc(NC(=O)c2nnn(Cc3cccc(C(F)(F)F)c3)c2N)cc1	28%[46.1 µM]	1.4%	.	-12%	1%[46.1 µM]	.	.	11%
CCn1nc(C)c(CN2CCN(Cc3cccc(OC)c3)C(CCO)C2)c1C (stereo not drawn)	8%[46.1 µM]	.	0%	-14%	5%	-8%	4%	.
CC(C)(C#N)Nc1ccccc1	13%	7.7%	6%	.	29%	-2%	-3%	1%
Fc1ccc2c(c1)nnn2C1CCN(Cc2nnnn2C2CCCCC2)CC1	-25%	3.5%	-4%	-18%	1%	-6%	-6%	26%
CSc1nnc(-c2ccc(F)cc2)o1	-2%	-0.6%	-1%	.	8%	-10%	-2%	-3%
NC(=O)c1ccc(NC(=O)COC(=O)CC2CC3CCC2C3)cc1 (stereo not drawn)	9%[46.1 µM]	.	1%	8%	-3%[46.1 µM]	-20%	.	.
CC(C)c1cccc(OCCN2CCCC2)c1	0%[46.1 µM]	.	0%	-6%	-10%[46.1 µM]	19%	9%	.
COc1ccc(OC)c(CN2CCN(C(=O)c3cccc4ccccc34)CC2)c1	4%	3.3%	-2%	?	-7%	2%	-12%	12%
Cc1cc(SCC(=O)OCC(=O)NCc2ccc3c(c2)OCO3)c(C)cc1Br	-10%	-9.7%	0%	8%	?	17%	-44%	12%
CCOc1ccc(NC(N)=O)cc1OCC	10%	4.5%	9%	-20%	2%	?	7%	-7%
O=C1c2cccc3c([N+](=O)[O-])ccc(c23)C(=O)N1Cc1cccnc1	?	.	-24%	-4%	?	-9%	.	.
CN(CC(=O)N1CCc2ccccc21)S(=O)(=O)c1ccc(Cl)cc1	4%	1.7%	-2%	-19%	?	8%	-33%	1%
Cc1cc(F)ccc1S(=O)(=O)NCC1CC2CCC1C2 (stereo not drawn)	.	.	-4%	6%	.	-2%	-10%	.
CC(=O)OCCCN1C(=O)c2ccc(Br)cc2C1=O	24%	3.1%	1%	12%	4%	5%	-8%	-5%
CCOc1ccccc1NC(=O)CSc1nnc(CNC(=O)c2ccco2)o1	6%	-5.7%	2%	10%	14%	0%	-5%	-6%
CCOC(=O)C1=C(c2ccccc2)N=c2s/c(=C\c3ccco3)c(=O)n2C1c1cccs1 (stereo not drawn)	?	-0.7%	-6%	.	?	1%	-27%	?
COc1ccc(CNC(=O)C(CCSC)NS(=O)(=O)c2ccc3c(c2)oc(=O)n3C)cc1 (stereo not drawn)	.	-0.3%	.	-3%	15%[46.1 µM]	.	.	0%
CC(=O)c1ccc(NC(=O)C(C)OC(=O)c2ccc(NS(=O)(=O)c3ccc4[nH]c(=O)[nH]c4c3)cc2)cc1 (stereo not drawn)	6%	.	.	-6%	4%	5%	.	.
Cc1c(NP(=S)(C(C)(C)C)C(C)(C)C)c(=O)n(-c2ccccc2)n1C	-14%[46.1 µM]	.	-1%	-14%	-6%[46.1 µM]	140%	.	.
CN(C(=O)CSc1nc(-c2ccc(F)cc2)cs1)C1CCS(=O)(=O)C1 (stereo not drawn)	1%	1.5%	6%	.	-2%	4%	-16%	-1%
O=S(=O)(Nc1ncnc2scc(-c3ccc(F)cc3)c12)c1cc(F)ccc1F	.	.	-2%	-30%	.	-9%	-46%	.
CCOC(=O)c1ccc(NC(=O)CSc2nc3ncccc3[nH]2)cc1	-3%	-2.9%	5%	?	11%	5%	9%	-7%
Cc1ccc(S(=O)(=O)N2CCC(C(=O)OCC(=O)N(Cc3ccccc3)C(C)(C)C)CC2)cc1C	2%	.	-2%	?	5%	-14%	.	.
CN(CC(=O)Nc1ccc(Cl)c(Cl)c1)C(=O)/C=C/c1ccc(F)cc1	-20%	-12%	28%	0%	13%	4%	-17%	2%
COc1ccc(C(=O)Nc2c(Cl)cc(Cl)cc2C(=O)N2CCOCC2)cc1	.	.	2%	-16%	.	-11%	0%	.
Cc1ccc(NC(=O)c2oc3c(c2C)C(=O)CC(C)(C)C3)cc1	-5%	-6.2%	-1%	-12%	-1%	-4%	?	-5%
NC(=O)CNC(=O)[C@@H]1CC2(CC(c3ccccc3)=NO2)CN1C(=O)c1ccc(Br)cc1 (stereo partly drawn)	1%	4.5%	-2%	-7%	.	7%	-2%	?
Cc1ccc(N=Cc2c(O)ccc3ccccc23)cc1F	1%	-5.6%	-6%	0%	-19%	-30%	?	-3%
Cc1nnc(SCc2ccc([N+](=O)[O-])cc2)[nH]c1=O	-5%[46.1 µM]	.	-1%	21%	16%	0%	6%	.
Cc1cc(C)c2nc(N(CCCN(C)C)C(=O)c3ccc4c(c3)OCCO4)sc2c1	?	.	-3%	-24%	?	-18%	.	.

Reformatted: six of the compounds above
Below each SMILES – MARV entry inh, Cruzain inh Det, SARS PLP yeast, StopGo reporter, Lassa entry inh, RE007 growth inh, NS1 inh, Cruzain inh noDet
- Cc1ccc(S(=O)(=O)N2CCC(C(=O)OCC(=O)N(Cc3ccccc3)C(C)(C)C)CC2)cc1C
  2%, ., -2%, ?, 5%, -14%, ., .
- CN(CC(=O)Nc1ccc(Cl)c(Cl)c1)C(=O)/C=C/c1ccc(F)cc1
  -20%, -12%, 28%, 0%, 13%, 4%, -17%, 2%
- COc1ccc(C(=O)Nc2c(Cl)cc(Cl)cc2C(=O)N2CCOCC2)cc1
  ., ., 2%, -16%, ., -11%, 0%, .
- Cc1ccc(NC(=O)c2oc3c(c2C)C(=O)CC(C)(C)C3)cc1
  -5%, -6.2%, -1%, -12%, -1%, -4%, ?, -5%
- NC(=O)CNC(=O)[C@@H]1CC2(CC(c3ccccc3)=NO2)CN1C(=O)c1ccc(Br)cc1 (stereo partly drawn)
  1%, 4.5%, -2%, -7%, ., 7%, -2%, ?
- Cc1ccc(N=Cc2c(O)ccc3ccccc23)cc1F
  1%, -5.6%, -6%, 0%, -19%, -30%, ?, -3%

2 of the compounds above, as labelled records:
molecule: Cc1cc(C)c2nc(N(CCCN(C)C)C(=O)c3ccc4c(c3)OCCO4)sc2c1
- MARV entry inh: ?
- Cruzain inh Det: .
- SARS PLP yeast: -3%
- StopGo reporter: -24%
- Lassa entry inh: ?
- RE007 growth inh: -18%
- NS1 inh: .
- Cruzain inh noDet: .
molecule: Cc1nnc(SCc2ccc([N+](=O)[O-])cc2)[nH]c1=O
- MARV entry inh: -5%[46.1 µM]
- Cruzain inh Det: .
- SARS PLP yeast: -1%
- StopGo reporter: 21%
- Lassa entry inh: 16%
- RE007 growth inh: 0%
- NS1 inh: 6%
- Cruzain inh noDet: .

Compound activity as filed in PubChem.
